# Lassa entry inh – inhibitors of Lassa virus binding or cell entry. Lassa virus pseudotype entry inhibition, cell reporter; control for the full effect not named in the record. Potency, µM (top dose mostly 37.9 µM), without a hit: top-dose activity change, negative = inhibition, usual class: inhibitors. hit rate 1.2% among 300,000. AID 540256; active means well fitted inhibition curve with a large enough effect; inconclusive means small, poorly fitted or top-dose-only effect, or effect the other way; inactive means flat fitted curve, though single readings scatter; tested in HEK293 cells; also: % is scaled to controls: 0 for no effect and ±100 for the full control effect; nearly all actives have a fitted effect of over 50% in size; luciferase read-out
# Cruzain noTriton – blocks cruzain activity in detergent-free assay; purified cruzain, Z-FR-AMC fluorescence, no detergent; Potency, µM, inactives show max response, negative = inhibition, actives largely listed as inhibitors; hit rate 2.3% among 200,000; active = well fitted curve in the direction sought with a large enough effect; inconclusive = small, poorly fitted or top-dose-only effect, or another doubt; inactive = no such curve, though single readings can be large; an effect the other way counts as inactive or inconclusive;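 also: plate controls were enzyme without inhibitor for no effect and buffer without enzyme for full effect; nearly all actives have a fitted effect of over 40% in size; top concentration of the series not given in the record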
# Target sequence (P25779 123-467 limits assumed): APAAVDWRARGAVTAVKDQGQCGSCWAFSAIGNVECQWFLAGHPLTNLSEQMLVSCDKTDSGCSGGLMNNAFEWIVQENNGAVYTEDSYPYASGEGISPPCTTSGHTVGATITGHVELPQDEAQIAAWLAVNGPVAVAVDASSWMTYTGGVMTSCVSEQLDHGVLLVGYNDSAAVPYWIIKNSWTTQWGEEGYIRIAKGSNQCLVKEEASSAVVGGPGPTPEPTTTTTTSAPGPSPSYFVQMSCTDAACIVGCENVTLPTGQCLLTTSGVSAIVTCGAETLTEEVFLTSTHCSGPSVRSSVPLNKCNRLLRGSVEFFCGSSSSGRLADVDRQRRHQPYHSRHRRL
#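 Detergent-free condition (0.00005% Triton X-100) in acetate buffer pH 5.5 with DTT. 1.5 nM enzyme and compound were pre-mixed 15 min, then 2 uM Z-FR-AMC substrate added; reaction progress from fluorescence change between first and third reads (60 s).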
# 2A StopGo – lowers the luciferase signal of an FMDV 2A StopGo reporter; hit rate 1.2% among 410,000; Potency, µM (highest dose often 57.9 µM), inactives show at the highest dose signal change, negative = less light; AID 1159524; human cells with a luciferase reporter of 2A StopGo recoding; control for the full effect not named in the record; active = well fitted falling curve with a large enough effect; inconclusive = small, poorly fitted or top-dose-only effect; inactive = no such curve, though single readings can be large or run the other way; tested in HEK293T cells; also: % is scaled to controls: 0 for no effect and ±100 for the full control effect; nearly all actives have a fitted effect of over 45% in size; luciferase light after 4 h
# Cruzain inh Det – blocks cruzain activity in presence of Triton detergent; P25779; purified cruzain, Z-FR-AMC fluorescence, 0.01% Triton; Potency, µM, for inactives: max response, negative = inhibition, hits mostly inhibitors; hit rate 0.43% among 200,000; AID 1478; active = well fitted curve in the direction sought with a large enough effect; inconclusive = small, poorly fitted or top-dose-only effect, or another doubt; inactive = no such curve, though single readings can be large; an effect the other way counts as inactive or inconclusive;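 also: plate controls were neutral wells for no effect and buffer without enzyme for full effect; nearly all actives have a fitted effect of over 40% in size; top concentration of the series not given in the record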
#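 Cruzain (1.5 nM) preincubated 15 min at RT with compound in 100 mM sodium acetate pH 5.5, 5 mM DTT, 0.01% Triton X-100. Reaction started with 2 uM Z-FR-AMC; AMC fluorescence (ex 360/em 450 nm) change over 60 s gave rate.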
# NS1 inh – blocks influenza NS1 protein function; AID 2326; S. cerevisiae slowed by influenza A NS1, growth recovery by OD600; hit rate 0.4% among 270,000; Potency, µM (doses to about 46.1 µM), without a hit: at the highest dose activity, positive = more growth; also: actives are rising curves; nearly all actives have a fitted effect of over 50% in size
#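 Recovery from NS1-induced slow growth read by OD600 in budding yeast switched to galactose assay medium (pH 6.0, -URA) at 1:100 dilution. Compound 23 nl per well; the matching strain lacking NS1 serves as control.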
# RE007 growth inh – less growth of the S. pombe RE007 Vpr strain | S. pombe RE007 Vpr strain, BacTiter-Glo ATP luminescence, 24 h; control for the full effect not named in the record | hit rate 0.21% among 360,000 | Potency, µM (series often up to 92.2 µM), for the others: at the highest dose activity change, negative = less growth; active = well fitted falling curve with a large enough effect; inconclusive = small, poorly fitted or top-dose-only effect; inactive = no such curve, though single readings can be large or run the other way;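 also: % is scaled to controls: 0 for no effect and ±100 for the full control effect; nearly all actives have a fitted effect of over 50% in size; the assay follows cell death caused by Vpr and the record does not say whether a fall means rescue or toxicity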
#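 Fission yeast RE007 carrying one integrated HIV-1 vpr copy, seeded at OD 0.01 in PMG+AL medium with 23 nL pinned compound. Grown 24 h at 30 degrees; viability read by BacTiter-Glo luminescence after 5 min.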
# MARV entry inh – inhibitors of Marburg virus binding or cell entry; Marburg virus pseudotyped entry inhibition, cell reporter; control for the full effect not named in the record; about a third of the inactives were read at about 46 µM; Potency, µM (top dose mostly 37.8 µM), for the others: top-dose activity change, negative = inhibition, hits mostly inhibitors; hit rate 1.8% among 300,000; AID 540276; active = well fitted inhibition curve with a large enough effect; inconclusive = small, poorly fitted or top-dose-only effect, or effect the other way; inactive = flat fitted curve, though single readings scatter; tested in HEK293 cells; about a fifth of its hits are not listed in these tables; also: % is scaled to controls: 0 for no effect and ±100 for the full control effect; luciferase read-out
# SARS PLP yeast – inhibitors of SARS-CoV papain-like protease in yeast; hit rate 0.19% among 330,000; AID 485353; Potency, µM (doses to about 32.9 µM), without a hit: at the highest dose activity, positive = growth rescue; S. cerevisiae expressing SARS-CoV PLpro, growth rescue; control for the full effect not named in the record; also: 0% is about no effect; nearly all actives have a fitted effect of over 55% in size; growth read by luminescence after 48 h
# Active calls of the source: *; ? = inconclusive; nt = no result given; & = joins results of further samples; [ ] = another dose, or the depositor's remark. Unless noted, calls follow the shape of the dose curve; as a rule, active means well fitted rising curve with a large enough effect; inconclusive means small, poorly fitted or top-dose-only effect; inactive means no such curve, though single readings can be large or run the other way. Potency is read from the fitted curve at half-maximal effect.
# Results follow in this order: Cruzain noTriton, 2A StopGo, NS1 inh, Lassa entry inh, RE007 growth inh, Cruzain inh Det, MARV entry inh, SARS PLP yeast
- Cc1ccc(NC(=O)NCCN2CCCCC2)cc1Cl
→ nt, -6%, 5%, 21%[46.1 µM], -5%, nt, ?, -4%
- Cc1ccc(CC(=O)Nc2ccccc2N2CCOCC2)cc1C
→ -29%, -15%, 1%, 2%, -2%, -2.1%, -13%, -7%
- CCc1nnc(NC(=O)CCN2C(=O)/C(=C/c3cc(OC)c(OC)c(OC)c3)SC2=S)s1
→ nt, 34%[activator], 1%, 12%[46.1 µM], 11%, nt, 27%[46.1 µM], -1%
- COc1ccc2c(c1)CCC1=C2NC(=S)NC1c1ccc(N(C)C)cc1 (stereo not drawn)
→ nt, ?, 14%, ?, 21%, nt, ?, 1%
- Cc1nc(NS(=O)(=O)c2ccccc2)sc1NC(=O)OC(C)C
→ 0%, nt, 5%, 7%, 2%, -0.9%, 3%&3%, -2%
- O=C(NCc1ccccn1)c1cccc(S(=O)(=O)N2CCc3ccccc32)c1
→ nt, -11%, nt, -26%, -26%, nt, -27%, 1%
- Cc1ccccc1-c1nc(CS(=O)CC(=O)NC(C)CCc2ccccc2)c(C)o1 (stereo not drawn)
→ nt, -12%, -11%, nt, 1%, nt, nt, 4%
- COc1ccc([C@@]23Oc4cc(OC)cc(OC)c4[C@]2(O)[C@H](O)[C@H](C(=O)N(C)C)[C@H]3c2ccccc2)cc1
→ nt, ?, nt, ?, -30%, nt, 0.11µM*, nt
- Cc1ccc(NC(=O)c2cc(S(=O)(=O)NCCC3=CCCCC3)ccc2F)cc1
→ 12%, -21%, -38%, ?, 11%, -10.0%, ?, -23%
- CCN1CCN(C(=O)C2CCN(S(=O)(=O)c3cc(Cl)ccc3Cl)CC2)CC1
→ nt, 2%, 5%, nt, 8%, nt, -6%[46.1 µM], 1%
- Cc1ccc(-n2ncc(C(=O)N3CCN(C(=O)c4ccco4)CC3)c2-n2cccc2)cc1
→ nt, -11%, -4%, -6%[46.1 µM], -6%, nt, ?, 2%
- Cc1ccc(NC(=O)c2ccc([N+](=O)[O-])cc2)cc1S(=O)(=O)N(C)C
→ nt, 5%, nt, ?, 10%, nt, 19%[46.1 µM], 1%
- Cc1ccc(C(=O)Nc2ccccc2)cc1S(=O)(=O)Nc1ccc(Cl)cn1
→ nt, 90%[activator], 3%, -12%, 5%, nt, 0%[46.1 µM], 2%
- O=C(c1ccccc1)c1cnc2ccc(Cl)cc2c1N1CCOCC1
→ nt, -4%, 0%, nt, 3%, nt, nt, -3%
- COc1cccc(/C=N/NC(=O)CCc2c(C)n[nH]c2C)c1
→ -8%, -13%, 8%, -1%, -8%, 2.3%, -33%, 7%
- COCCN(C(=O)c1csnn1)C(C(=O)NC1CCCCC1)c1ccccc1 (stereo not drawn)
→ nt, -7%, 16%, 11%[46.1 µM], -7%, nt, -5%[46.1 µM], 1%
- CC/C(=N\NS(C)(=O)=O)c1ccccc1
→ 14%, -8%, 12%, 3%, -2%, 7.8%, -2%, 0%
- O=C(OCC(=O)N1CCN(C(=O)c2ccco2)CC1)c1cc(-c2ccccc2)nc2ccccc12
→ ?, -30%, -38%, -30%, -3%, -7.6%, ?, -9%
- Cc1ccnc(N2CCC(C(=O)Nc3cccc(C(F)(F)F)c3)CC2)n1
→ -2%, ?, -39%, ?, -5%, -0.4%, ?, -11%
- COc1cc(CN2CCN(CCCc3ccccc3)C(CCO)C2)cc(OC)c1O (stereo not drawn)
→ nt, -4%, 18%, nt, 18%, nt, nt, -5%
- c1ccc(Cc2nn3c(Cn4nnc5ccccc54)nnc3s2)cc1
→ -3%, -3%, -51%, 3%, 12%, 4.1%, 2%, -5%
- CCc1cccc(NC(=O)C2CCCN(S(=O)(=O)c3cccs3)C2)c1 (stereo not drawn)
→ -7%, 4%&-13%, 13%, ?, 14%, -8.7%, ?, -2%
- COc1ccc(NC(=S)Nc2ccccc2)cn1
→ -4%, -21%, -5%, 13%, -16%, 0.4%, 0%, 5%
- Cc1cnc(C(=O)OCC(=O)Nc2ccc(OCc3ccccc3)cc2)cn1
→ nt, 22%, nt, 15%, -26%, nt, -8%, 3%
- CCn1ncc(S(=O)(=O)Nc2cc(Cl)ccc2C)c1C
→ nt, 15%, 2%, nt, 0%, nt, nt, -3%
- COc1cccc(Cn2cccc(NC(=O)NCc3ccccc3)c2=O)c1
→ nt, -15%, -3%, ?, 2%, nt, -4%[46.1 µM], 3%
- O=C(C1=C(O)C(=O)N(c2nccs2)C1c1ccccc1)c1cc2ccccc2o1 (stereo not drawn)
→ nt, -18%, -4%, ?, -18%, nt, ?, -2%
- Cc1nn(C)c(C)c1S(=O)(=O)N(CC(=O)NC1CCCCCC1)c1ccc(C(C)C)cc1
→ ?, 0%, -4%, nt, -13%, -2.3%, nt, -6%
- COC(=O)CCC(=O)N1CCCC(N2CCN(c3ccc(OC)cc3)CC2)C1 (stereo not drawn)
→ nt, 8%, -17%, -1%[46.1 µM], -3%, nt, 4%[46.1 µM], ?
- CCOC(=O)N1CCN(C(=O)C2CCN(S(=O)(=O)N(CC)CC)CC2)CC1
→ 3%, -11%, -3%, -12%, -5%, 2.0%, ?, ?

# Seven records picked at random from the list so far, as already listed:
# Results follow in this order: Cruzain noTriton, 2A StopGo, NS1 inh, Lassa entry inh, RE007 growth inh, Cruzain inh Det, MARV entry inh, SARS PLP yeast
- Cc1nc(NS(=O)(=O)c2ccccc2)sc1NC(=O)OC(C)C
→ 0%, nt, 5%, 7%, 2%, -0.9%, 3%&3%, -2%
- O=C(NCc1ccccn1)c1cccc(S(=O)(=O)N2CCc3ccccc32)c1
→ nt, -11%, nt, -26%, -26%, nt, -27%, 1%
- O=C(C1=C(O)C(=O)N(c2nccs2)C1c1ccccc1)c1cc2ccccc2o1 (stereo not drawn)
→ nt, -18%, -4%, ?, -18%, nt, ?, -2%
- Cc1ccc(NC(=O)NCCN2CCCCC2)cc1Cl
→ nt, -6%, 5%, 21%[46.1 µM], -5%, nt, ?, -4%
- COC(=O)CCC(=O)N1CCCC(N2CCN(c3ccc(OC)cc3)CC2)C1 (stereo not drawn)
→ nt, 8%, -17%, -1%[46.1 µM], -3%, nt, 4%[46.1 µM], ?
- Cc1ccc(NC(=O)c2cc(S(=O)(=O)NCCC3=CCCCC3)ccc2F)cc1
→ 12%, -21%, -38%, ?, 11%, -10.0%, ?, -23%
- CCOC(=O)N1CCN(C(=O)C2CCN(S(=O)(=O)N(CC)CC)CC2)CC1
→ 3%, -11%, -3%, -12%, -5%, 2.0%, ?, ?

# New compounds follow.
# Results follow in this order: Cruzain noTriton, 2A StopGo, NS1 inh, Lassa entry inh, RE007 growth inh, Cruzain inh Det, MARV entry inh, SARS PLP yeast
- CCOC(=O)N1CCC(c2cc(=O)n3[nH]cc(C(=O)OC)c3n2)CC1
→ 1%, 0%, 5%, nt, -6%, -0.6%, nt, 5%
- Cc1cc(C(F)(F)F)n2ncc(-c3ccc(F)cc3)c2n1
→ -1%, 3%, -8%, -13%, 6%, 4.2%, 5%, -10%
- CC(=O)N1CCN(C(=O)C2(NC(=O)Nc3ccc(C)cc3)CCCCC2)CC1
→ nt, 12%, 16%, 7%[46.1 µM], -3%, nt, 7%[46.1 µM], 2%
- COC(=O)c1nnn(CC(=O)Nc2cccc(OC)c2)c1C(=O)OC
→ -2%, 3%, ?, -8%, 17%, 3.5%, 26%, -2%
- COc1ccccc1S(=O)(=O)Cc1ccc(C(=O)NCc2ccc3c(c2)OCO3)o1
→ 1%, ?, -8%, nt, -5%, 2.4%, nt, -3%
- O=C(CSc1nnc(-c2ccc(O)cc2)o1)N1CCOCC1
→ -5%, 34%[activator], ?, ?, -1%, 5.1%, 0%[46.1 µM], 9%
- COc1ccccc1C(=O)NNC1CC(=O)N(c2ccc3c(c2)OCCO3)C1=O (stereo not drawn)
→ -1%, -22%, 10%, 10%, -20%, 0.6%, ?, -4%
- CNC(=O)c1cc(C(=O)c2ccccc2Br)c[nH]1
→ nt, -7%, -6%, ?, -9%, nt, -1%[46.1 µM], -2%
- CC(C)CC(=O)Nc1nc2c(c(=O)[nH]1)CCCC2
→ 11%, -9%, 0%, 8%, 22%, 0.2%, -5%, 1%[6.58 µM]
- COc1cc([N+](=O)[O-])cc(/C=N/NC(=O)Cn2nccc2C)c1O
→ nt, -10%, -4%, nt, 5%, nt, nt, 5%
- O=C(O)c1[nH]c2ccc(Cl)cc2c1CC(=O)N1CCN(C(=O)c2ccco2)CC1
→ ?, 0%, 14%, 10%, -1%, -2.8%, 11%, 0%
- COC(=O)CSc1nc(SC)nc2c1sc1nc(-c3ccco3)c3c(c12)CC(C)(C)OC3
→ nt, -17%, nt, 6%, 0%, nt, -1%[46.1 µM], nt
- O=C(/C=C\c1ccc2c(c1)OCO2)NC1CC(=O)N(c2ccc(F)cc2)C1 (stereo not drawn)
→ -11%, -24%, nt, 7%[46.1 µM], nt, -8.9%, nt, nt
- C=CCOc1ccc(Cl)cc1CNC1CCCC1
→ nt, -13%, -4%, nt, -20%, nt, nt, -1%
- Cc1c(NC(=O)CSc2nnc3c4ccccc4n(CCc4ccccc4)c3n2)c(=O)n(-c2ccccc2)n1C
→ -1%, ?, 20%, 0.63µM*, 4%, -3.0%, ?, 1%
- CC1CCN(CCCNC(=O)C2CCC(=O)N2C2CCCC2)CC1 (stereo not drawn)
→ 5%, -13%, ?, 1%, -15%, 9.6%, 1%, 6%
- O=C(N/N=C/c1ccccn1)c1ccc(NC(=O)c2cccc([N+](=O)[O-])c2)cc1
→ nt, 11%, nt, 6%, 12%, nt, ?, 0%
- O=C(NCCc1c[nH]c2ccccc12)C(=O)NCC(c1ccco1)N1CCN(c2ccccc2)CC1 (stereo not drawn)
→ 6%, ?, 6%, 8%, 8%, -3.1%, 2%, 12%

# Screening results deposited in PubChem by National Center for Advancing Translational Sciences (NCATS).
